PINK1 modulator: PINK1 expression modulation | PINK1 immunofluorescence, high-content cytometry, 24 h | Potency, µM (doses to about 76.6 µM), for the others: at the top dose activation (PINK1 increase), usual class: activators | actives 0.2% (n = 410,000); active = well fitted activation curve with a large enough effect; inconclusive = small, poorly fitted or top-dose-only effect; inactive = flat fitted curve, though single readings scatter; cell line not stated here;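 further: potency means the concentration at half of the fitted maximal effect; % of control where 0% means no effect; nearly all actives have a fitted effect of over 65% in size; a mitochondrial uncoupler was the plate control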
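Readout is PINK1 immunofluorescence, quantified alongside mitochondrial, cell and nuclear markers by laser-scanning microplate cytometry. Cells from a stable line were exposed to compound titrations (5 concentrations) for 24 hours, with CCCP controls.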
Six1-Eya2 inh: blocks human Six1 binding to Eya2 | Q15475+O00167 | AlphaScreen GST-Six1/His-Eya2 binding, biochemical; active compounds read low; control for the full effect not named in the record | activity change, % (no concentration beside the values) | actives 0.56% (n = 360,000); in the data active = activity change below about -65%; inconclusive = about -30% to -65%; inactive = above about -30%; further: on the % scale 0 is the no-effect control and ±100 the full control effect
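AlphaScreen luminescence read after one hour at 37 °C in darkness. Pin-transferred compounds met GST-Six1 and His-Eya2 protein (5X stock 250 nM/500 nM) plus glutathione donor and Ni-chelate acceptor beads (5X, 50 ug/mL).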
TRPV1 potentiator: enhances activation of the human vanilloid receptor TRPV1; Q8NER1; TRPV1-expressing cells, Fluo-8 calcium influx, capsaicin EC20 potentiation; host cell line not named in the record; control for the full effect not named in the record; potentiation, % at 8.33 µM; actives 0.02% (n = 320,000); active means potentiation above 80%; inconclusive means 30% to 80%; inactive means below 30%; further: 0% is about no effect
Target sequence (Q8NER1 whole entry, looked up): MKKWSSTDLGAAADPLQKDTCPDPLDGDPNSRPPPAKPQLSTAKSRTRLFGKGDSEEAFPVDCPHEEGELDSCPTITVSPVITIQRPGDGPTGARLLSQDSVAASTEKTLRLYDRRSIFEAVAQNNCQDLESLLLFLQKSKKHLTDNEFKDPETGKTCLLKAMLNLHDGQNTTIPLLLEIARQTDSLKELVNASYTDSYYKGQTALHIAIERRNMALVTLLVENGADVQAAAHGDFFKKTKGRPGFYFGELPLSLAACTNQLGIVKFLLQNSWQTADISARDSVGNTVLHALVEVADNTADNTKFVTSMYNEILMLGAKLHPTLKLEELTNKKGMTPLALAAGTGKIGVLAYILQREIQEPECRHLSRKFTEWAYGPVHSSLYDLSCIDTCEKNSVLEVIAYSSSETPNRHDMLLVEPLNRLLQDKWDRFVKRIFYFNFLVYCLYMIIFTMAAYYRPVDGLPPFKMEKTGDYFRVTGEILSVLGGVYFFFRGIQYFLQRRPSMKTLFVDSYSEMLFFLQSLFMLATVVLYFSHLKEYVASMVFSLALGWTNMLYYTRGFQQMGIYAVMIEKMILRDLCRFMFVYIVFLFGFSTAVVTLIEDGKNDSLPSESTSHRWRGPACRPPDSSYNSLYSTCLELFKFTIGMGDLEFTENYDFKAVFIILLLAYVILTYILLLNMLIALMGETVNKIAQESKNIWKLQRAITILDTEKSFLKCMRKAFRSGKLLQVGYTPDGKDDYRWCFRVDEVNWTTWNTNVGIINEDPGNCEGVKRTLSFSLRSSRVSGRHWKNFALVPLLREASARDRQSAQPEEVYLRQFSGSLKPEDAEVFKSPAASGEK
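Cells expressing TRPV1 were dye-loaded with Fluo-8 and read kinetically: 10 s baseline, 3 min after compound (agonist portion), then 2 min after EC20 capsaicin (allosteric enhancer portion). Calcium-bound dye fluorescence at 480/520 nm.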
CtBP-E1A blk: blocks the CtBP interaction with E1A; AlphaScreen GST-E1A/His-CtBP binding, 1536-well; active compounds read low; control for the full effect not named in the record; activity change, % (no concentration beside the values); actives 0.49% (n = 340,000); in the data active means activity change below about -65%; inconclusive means about -30% to -65%; inactive means above about -30%; further: on the % scale 0 is the no-effect control and ±100 the full control effect
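Protein mix (5X: 125 nM each GST-E1A, His-CtBP) was incubated with pinned compound 2 h at 37 deg C in dark, in 50 mM Tris pH 8.0 buffer with 300 mM NaCl. Glutathione donor and nickel acceptor beads followed; AlphaScreen signal read after 1 h.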
Sfp inh: inhibitors of Bacillus subtilis Sfp phosphopantetheinyl transferase. Q9F4F7. actives 3.5% (n = 310,000). Potency, µM, without a hit: max response, negative = inhibition, usual class: inhibitors. Biochemical Sfp PPTase activity, qHTS; active means well fitted inhibition curve with a large enough effect; inconclusive means small, poorly fitted or top-dose-only effect, or another doubt; inactive means no such curve, though single readings can be large or run the other way;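 further: the enzyme is Sfp with the accession as filed and its product quenches rhodamine fluorescence; potency means the concentration at half of the fitted maximal effect; 0% = enzyme reaction without inhibitor and -100% = no enzyme wells; top concentration of the series not given in the record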
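Fluorescence-quenching assay with 15 nM Sfp, 5 uM rhodamine-CoA and 12.5 uM BHQ-2-labelled ybbR peptide in pH 7.6 Hepes/MgCl2 buffer. Enzyme was pre-incubated with compound for 15 min at room temperature. Rate was taken from the 30-min fluorescence change (525/598 nm).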
D2 ag: activates the human D2 dopamine receptor; AID 624465; actives 0.084% (n = 360,000); DiscoveRx PathHunter D2 beta-arrestin, luminescence, 90 min; 100% = 57 uM dopamine signal; activation, % (test concentration not listed); in the data active = activation above about 40%; inconclusive = about 15% to 40%; inactive = below about 15%; further: compound concentration not given in the record; the text of the record calls up to 30% inactive
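Agonist mode: compounds alone added to overnight-plated D2 PathHunter cells for 90 min at 37 C, with 57 uM final dopamine (EC100) defining full response. Beta-arrestin recruitment detected by chemiluminescent reagent, read after 1 h at ambient temperature.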
D2 potentiator: potentiates the human D2 dopamine receptor allosterically | actives 0.23% (n = 360,000) | potentiation, % (test concentration not listed) | P14416 | DiscoveRx D2 beta-arrestin cells, luminescence, 90 min; 100% = 57 uM dopamine signal; active = potentiation of 50% or more; inconclusive = 30% to 50%; inactive = 30% or less;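 further: compound concentration not given in the record; tested on top of an EC20 dose of dopamine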
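PathHunter beta-arrestin assay in DiscoveRx D2 cells. Compounds were added with an EC20 of dopamine (50 nM final) for 90 min at 37 deg C. Luminescence was read 1 h after detection reagent, with 57 uM dopamine as the EC100 control.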
Numbers without * were called inactive; ? = inconclusive; / = not tested or not shown; & = joins results of further samples; [ ] = remark or other dose.

Preview (two entries):
SMILES	PINK1 modulator	Six1-Eya2 inh	TRPV1 potentiator	CtBP-E1A blk	Sfp inh	D2 ag	D2 potentiator
CC1(c2nnc(-c3cccc(Cl)c3)o2)CC(c2ccc(Br)cc2)=NO1 (stereo not drawn)	0.7%	12	/	6	/	-1.4	0
Cc1ccc(CSc2nnc(CS(=O)Cc3ccc(Cl)cc3Cl)n2C)cc1 (stereo not drawn)	4.9%[38.3 µM]	3	-8	6	-9%	-0.4	7

Results, from the first entry:
SMILES	PINK1 modulator	Six1-Eya2 inh	TRPV1 potentiator	CtBP-E1A blk	Sfp inh	D2 ag	D2 potentiator
CC1(c2nnc(-c3cccc(Cl)c3)o2)CC(c2ccc(Br)cc2)=NO1 (stereo not drawn)	0.7%	12	/	6	/	-1.4	0
Cc1ccc(CSc2nnc(CS(=O)Cc3ccc(Cl)cc3Cl)n2C)cc1 (stereo not drawn)	4.9%[38.3 µM]	3	-8	6	-9%	-0.4	7
CCCCn1c(N)c(N(CC)C(=O)c2cc(S(=O)(=O)N3CCN(CC)CC3)ccc2Cl)c(=O)[nH]c1=O	0.1%	1	1	6	12%	-1.6	4
O=C(Nc1cccnc1Cl)c1cc(-c2ccccc2O)on1	3.9%	6	6	1	4%	-4.2	-6
OCCNCCCOc1ccc(Cl)cc1Br	-1.2%	-3	13	-1	13%	-0.4	-3
O=C(NCc1ccc2c(c1)OCO2)c1ccccc1Cl	1.7%	5	/	0	/	1.7	-1
CC(C)CCNC(=O)NC(=O)COc1c(F)c(F)cc(F)c1F	7.7%	-4	-20	5	7%	-5.3	-3
O=C1CC(N2CCN(c3ccc(Cl)cc3)CC2)C(=O)N1c1ccc(F)cc1 (stereo not drawn)	5.0%	3	-4	-5	1%	-4.5	-5
COc1cccc(CNC(=O)C2CCN(S(=O)(=O)c3ccc(Br)s3)CC2)c1	0.0%	-4	-11	-1	12%	6.3	2
COc1ccc(OC)c(C2CC(=O)Nc3c2c(=O)[nH]c2ncnn32)c1 (stereo not drawn)	1.7%&0.5%	-8	22	2	-3%	-6.6	1
O=C1OC(c2ccc(O)cc2)(c2ccc(O)cc2)c2ccccc21	3.8%	27	6	19	9%&6%&-17%	1.1	1
O=C1C2C(C(=O)N1c1ccccc1)N1CCCN1C2c1ccccc1 (stereo not drawn)	2.1%	-4	6	2	24%	-6.7	0
COc1ccc(C2C(C(C)=O)=C(O)C(=O)N2CCc2ccccc2)c(OC)c1 (stereo not drawn)	1.6%	-1	-5	-13	11%	-2.0	-13
CC(CCc1ccccc1)NC(=O)CN1CCc2ccccc2C1 (stereo not drawn)	-1.2%	1	-10	-6	19%	15	4
COc1ccc(/C=C(\NC(=O)c2cccs2)C(=O)Nc2cccc3ccccc23)cc1OC	0.9%	-7	?	-3	27%	-1.2	-9
CC(C(=O)NC(C)(C)C)N(C(=O)CS(=O)CC(=O)Nc1ccc(F)cc1)C1CCCC1 (stereo not drawn)	2.1%	5	-11	-5	16%	-5.1	-3
Cc1cc(NS(=O)(=O)c2ccc(NC(=O)CCCOc3ccc(Cl)cc3)cc2)no1	2.4%	7	-5	2	8%	1.2	-12
Fc1cccc2sc(Nc3nc4cc5c(cc4s3)OCO5)nc12	0.3%	-2	12	-3	-32%	-1.4	-31
CCOC(=O)c1sc(=S)sc1SCc1cccc(C(F)(F)F)c1	4.0%	1	-3	-5	-7%	-2.1	-18
COc1ccc(NC(=O)CCCC(=O)OCC(=O)c2cccc(OC)c2)cc1	-0.6%	1	-19	0	2%	-3.8	2

6 compounds from above, showing only Six1-Eya2 inh, D2 ag and CtBP-E1A blk:
SMILES	Six1-Eya2 inh	D2 ag	CtBP-E1A blk
CC(C(=O)NC(C)(C)C)N(C(=O)CS(=O)CC(=O)Nc1ccc(F)cc1)C1CCCC1 (stereo not drawn)	5	-5.1	-5
Fc1cccc2sc(Nc3nc4cc5c(cc4s3)OCO5)nc12	-2	-1.4	-3
CCOC(=O)c1sc(=S)sc1SCc1cccc(C(F)(F)F)c1	1	-2.1	-5
Cc1cc(NS(=O)(=O)c2ccc(NC(=O)CCCOc3ccc(Cl)cc3)cc2)no1	7	1.2	2
COc1ccc(/C=C(\NC(=O)c2cccs2)C(=O)Nc2cccc3ccccc23)cc1OC	-7	-1.2	-3
O=C1OC(c2ccc(O)cc2)(c2ccc(O)cc2)c2ccccc21	27	1.1	19

Following part:
SMILES	PINK1 modulator	Six1-Eya2 inh	TRPV1 potentiator	CtBP-E1A blk	Sfp inh	D2 ag	D2 potentiator
CCOc1ccc(S(=O)(=O)NC2CCCC2)cc1C	0.6%	7	-25	0	4%	-4.8	-1
CSc1nc(SCC(=O)O)c2c3c(sc2n1)COC(C)(C)C3	0.5%	1	4	4	12%	-3.0	-6
O=C(O)CC/C(=C\c1ccc(N2CCOCC2)c([N+](=O)[O-])c1)c1nc2ccccc2s1	0.3%	-15	-5	/	17%	-2.6	8
CC(C)c1cc(C(=O)N2CCCC(C(=O)c3ccc4ccccc4c3)C2)on1 (stereo not drawn)	2.6%	-2	-7	2	-2%	0.7	-6
Cn1c(-c2ccc(F)cc2)cnc1NCc1ccc(F)cc1	-1.9%	-2	-1	-1	-25%	-3.7	-43
COc1ccccc1Cc1noc(C(C)(C)NC(=O)c2ccccc2)n1	7.6%[38.3 µM]	0	25	-10	11%	-1.4	-13
CC(C)Oc1cccc(C(=O)Nc2ncn[nH]2)c1	1.8%	-8	16	-10	-7%	-2.0	-5
COc1cc(CCC(=O)Nc2nnc(-c3cccnc3)s2)cc(OC)c1OC	2.1%	-13	3	-15	-23%	-2.9	1
O=C(Nc1cccc(C(=O)Nc2ccc(F)cc2F)c1)c1ccccc1	5.3%	9	0	/	-42%	1.0	-28
CCC(C)(C)NC(=O)C1CCN(c2nc(OC)nc(OC)n2)CC1	3.3%	3	3	3	10%	-2.6	0
CC1(C)CC(=O)C2=C(C1)c1c(ccc3ncccc13)NC2c1cccs1 (stereo not drawn)	15%	0	-16	1	-1%	-1.5	-10
O=C(Cc1ccc(Cl)cc1)c1ccc(O)cc1	0.2%	2	7	-17	6%	-3.4	-4
COc1ccccc1N(C)S(=O)(=O)c1ccc(Cl)c(C(=O)NC2=NCCS2)c1	1.3%	-11	-3	0	13%	0.7	-4
O=C(O)c1ccc(-n2c(O)c(C=C3N=c4ccccc4=N3)sc2=S)cc1	-1.3%	-16	-3	-20	0%	-1.6	-18
O=C(c1ccc(Cl)c(S(=O)(=O)N2CCOCC2)c1)N1CCN(Cc2ccccc2)CC1	-1.1%	-1	-3	-3	17%	-3.4	-6
COc1ccc(NC(=O)c2[nH]c(C)c(C(C)=O)c2C)cc1S(=O)(=O)N1CCOCC1	12%	-13	3	6	1%	4.8	-8
CCOC(=O)c1ccc(-c2c(-c3ccccc3OC)oc3ccccc23)cc1F	4.9%	16	-3	32	/	-1.7	-13
Cc1ccccc1NC(=O)CSc1nc2ccccc2o1	-1.0%[38.3 µM]	0	24	7	4%	-1.3	-7
CCOC(=O)C1=C(COC(=O)COc2ccccc2C=O)NC(=O)NC1C (stereo not drawn)	0.8%	-12	/	3	/	-0.1	-13
CCN(CC)C(=O)COc1ccc2c3c(c(=O)oc2c1C)CCCC3	0.7%	-3	0	-12	2%	7.1	7
Cc1nc2ccccc2cc1C(=O)N/N=C/c1cccs1	7.8%	2	0	-5	9%	-0.9	-2
CC(NC(=O)CSc1ccccc1C(=O)O)C1CC2CCC1C2 (stereo not drawn)	-1.1%	2	11	5	1%	4.6	-9
COc1cccc(/C=C2\SC(=S)N(CCC(=O)NCCc3ccc(O)cc3)C2=O)c1	-1.1%	-9	5	-16	26%	-2.9	-5
CC(=NCC1CCNCC1)C1=C(O)CC(C)(C)CC1=O	-0.4%	11	-8	4	21%	0.0	-1
NS(=O)(=O)c1ccc(Nc2ccc([N+](=O)[O-])c3nonc23)cc1	4.3%	-5	-9	10	79µM*	-11	-25
O=C(Cc1ccc([N+](=O)[O-])cc1)NNC(=O)c1cccs1	-0.2%	-1	0	-8	2%	-0.7	-10
O=C(CSc1nnc(-c2ccc(F)cc2)c2ccccc12)Nc1ccccc1Cl	0.5%	-11	-2	-25	-12%	-7.2	-11
O=C(Cn1nc(Cc2ccncc2)c2ccccc2c1=O)N1CCc2ccccc2C1	-0.1%	-19	27	-68*	-1%	-0.6	-9
Cc1c(C(=O)N(C)c2ccc(Cl)cc2)cnn1-c1ccccc1	2.4%	10	-9	28	11%	0.9	-4
COc1ccccc1/C=C(/C#N)C(=O)O	-0.4%	-5	-5	/	9%	1.1	6
COCCN(C(=O)COC(=O)c1cc(C)oc1C)c1c(N)n(Cc2ccccc2)c(=O)[nH]c1=O	-1.4%	-7	4	2	/	0.7	-6
CC(C)NC(=O)CSc1nnc(COc2ccccc2Cl)o1	2.1%	5	9	8	18%	-4.6	1
CC(Oc1cccc(Cl)c1)C(=O)N1CCCN(C)CC1 (stereo not drawn)	1.8%	0	-6	-1	10%	2.3	-4
CCc1nc2nc(C)c(NS(=O)(=O)c3cccs3)c(=O)n2[nH]1	-1.0%	-3	0	0	11%	-4.2	-8
O=S(=O)(/N=S1\CC=CCN1S(=O)(=O)c1ccccc1)c1ccccc1 (stereo not drawn)	-0.2%	7	/	5	/	-4.1	-22
O=C(Cn1ncc2ccccc21)N1CCN(c2cccc(C(F)(F)F)c2)CC1	0.7%[38.3 µM]	-11	-11	-25	12%	-0.1	13
O=C(N/N=C\c1ccccn1)C1c2ccccc2Oc2ccccc21	1.7%	0	-15	-14	-13%	-3.5	-10
CC(C)(C)CC(=O)Nc1nc(C(N)Cc2ccc(C(F)(F)F)cc2)cs1 (stereo not drawn)	-1.4%	-24	/	-18	/	-0.6	-4
O=C(CC(c1ccccc1)(c1ccccc1)c1ccccc1)N[C@@H](Cc1ccccc1)C(=O)O	1.1%	-2	4	10	12%	3.4	17
Cc1cc(C)cc(N(C(C)C(=O)N2CCOCC2)S(C)(=O)=O)c1 (stereo not drawn)	1.7%	8	-6	0	9%	-4.1	-12

High-throughput results deposited in PubChem BioAssay by National Center for Advancing Translational Sciences (NCATS).
